Screening results deposited in PubChem BioAssay by National Center for Advancing Translational Sciences (NCATS).
gsp ag = gsp mutant agonism; 0.13% of 340,000 active; Potency, µM (doses to about 76.9 µM), without a hit: top-dose activation (cAMP increase), usual class: activators; gsp mutant cells, cAMP HTRF, 30 min; control for the full effect not named in the record; active = well fitted activation curve with a large enough effect; inconclusive = small, poorly fitted or top-dose-only effect, or another doubt; inactive = no such curve, though single readings can be large or run the other way; cell line not stated here;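 also: phosphodiesterase inhibitor Ro 20-1724 added with compounds to block cAMP breakdown; potency is read from the fitted curve at half-maximal effect; nearly all actives have a fitted effect of over 60% in size; about a fifth of the inactives were tested at one dose only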
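Cells in DMEM/10% FBS with G418 were pretreated with compounds in DMSO plus […] (300 uM stock) for 30 min at 37C. cAMP was measured by HTRF (cAMP-d2 plus anti-cAMP antibody-K) after 30 min at room temperature.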
gsp antagonist = antagonizes gsp, the McCune-Albright syndrome mutation. AID 624288. gsp-mutant cells, cAMP HTRF, 30 min; control for the full effect not named in the record. 0.4% of 340,000 active. Potency, µM (titrated, usually from 76.9 µM), for inactives: top-dose activity change, negative = inhibition, hits mostly inhibitors; active = falling curve of any shape with a large fitted effect; inconclusive = falling curve, mostly with a smaller effect; inactive = flat or rising curve; cell line not stated here;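 also: intracellular cAMP measured with PDE inhibitor Ro 20-1724 present during compound exposure; potency is read from the fitted curve at half-maximal effect; % is scaled to controls: 0 for no effect and ±100 for the full control effect; nearly all actives have a fitted effect of over 65% in size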
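HTRF cAMP measurement after 30 min RT detection following 30 min, 37C compound treatment alongside […] (added as 300 uM solution) in G418-selected cells seeded at 2000/well and grown 16–24 h.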
Sfp inh = inhibitors of Bacillus subtilis Sfp phosphopantetheinyl transferase; Q9F4F7; Biochemical Sfp PPTase activity, qHTS; Potency, µM, inactives show max response, negative = inhibition, usual class: inhibitors; 3.5% of 310,000 active; active = well fitted inhibition curve with a large enough effect; inconclusive = small, poorly fitted or top-dose-only effect, or another doubt; inactive = no such curve, though single readings can be large or run the other way;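 also: the enzyme is Sfp with the accession as filed and its product quenches rhodamine fluorescence; potency is read from the fitted curve at half-maximal effect; 0% = enzyme reaction without inhibitor and -100% = no enzyme wells; top concentration of the series not given in the record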
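After 15 min at room temperature with compound, 15 nM Sfp received 5 uM rhodamine-CoA plus 12.5 uM BHQ-2-ybbR (50 mM Hepes pH 7.6, 10 mM MgCl2). Rate came from the fluorescence difference over 30 min, ex 525/em 598 nm.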
TRPV1 PAM = potentiators of human vanilloid receptor 1 (TRPV1); 0.02% of 320,000 active; potentiation, % at 8.33 µM; Q8NER1; TRPV1-expressing cells, Fluo-8 calcium influx, capsaicin EC20 potentiation; host cell line not named in the record; control for the full effect not named in the record; active means potentiation above 80%; inconclusive means 30% to 80%; inactive means below 30%; also: 0% is about no effect
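Cells expressing TRPV1 were dye-loaded with Fluo-8 and read kinetically: 10 s baseline, 3 min after compound (agonist portion), then 2 min after EC20 capsaicin (allosteric enhancer portion). Calcium-bound dye fluorescence at 480/520 nm.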
ClpP mod = qHTS Assay for Activators of ClpP; ATP-dependent Clp protease proteolytic subunit (Bacillus subtilis (strain 168)), P80244; purified B. subtilis ClpP, FRET peptide cleavage, 20 min; Potency, µM (titrated, usually from 57.5 µM), without a hit: at the highest dose activity change, negative = active; 1.9% of 340,000 active; AID 651965, 2013; active = well fitted falling curve with a large enough effect; inconclusive = small, poorly fitted or top-dose-only effect; inactive = no such curve, though single readings can be large or run the other way; also: potency is read from the fitted curve at half-maximal effect; the source files actives as falling curves though it sought activators and does not explain the sign; nearly all actives have a fitted effect of over 65% in size; many hits overshoot -100%
Target sequence (P80244 whole entry, looked up): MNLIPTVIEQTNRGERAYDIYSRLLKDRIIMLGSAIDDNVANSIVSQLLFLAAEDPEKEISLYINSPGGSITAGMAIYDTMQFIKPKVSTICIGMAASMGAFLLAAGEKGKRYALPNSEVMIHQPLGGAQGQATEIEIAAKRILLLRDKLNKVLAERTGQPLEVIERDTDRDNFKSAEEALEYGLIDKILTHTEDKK
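ClpP 10 microg/mL final, pH 8 Tris/KCl buffer with BSA, glycerol, Tween-20; compound pinned in; FRET-FV substrate; RT 20 min; Ex320/Em430; ΔFRET vs ADEP 5.8 microM, DMSO, no enzyme.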
Menin MLL FP FL = menin-MLL binding inhibition, fluorescein peptide; Fluorescence polarization, fluorescein-MLL peptide displacement from menin; FP activity change, % at 61.4 µM; 290,000 tested, under 10 active; inconclusive = falling polarisation curve, or a change in total fluorescence; inactive = total fluorescence flat and polarisation flat or rising; no compound was filed as active; the % refers to the polarisation; negative = inhibition;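 also: % of control where 0% means no effect; inhibitors lower the polarisation; unlabelled MLL peptide was the positive control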
TRPML1 blocker = blocks the human TRPML1 channel. Q9GZU1. TRPML1-inducible cells, Ca2+ dye fluorescence, FDSS; hits give low values; inhibition of EC80 agonist-evoked calcium signal. activity change, negative = inhibition, % (concentration not given with the values). 0.02% of 390,000 active. AID 624415; in the data active means activity change below about -50%; inconclusive means about -30% to -50%; inactive means above about -30%;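 also: stimulus is agonist 54-4 at its EC80 concentration; % is scaled to controls: 0 for no effect and ±100 for the full control effect; compound concentration not given in the record; the text of the record puts the active cut at -80%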
Target sequence (Q9GZU1 whole entry, looked up): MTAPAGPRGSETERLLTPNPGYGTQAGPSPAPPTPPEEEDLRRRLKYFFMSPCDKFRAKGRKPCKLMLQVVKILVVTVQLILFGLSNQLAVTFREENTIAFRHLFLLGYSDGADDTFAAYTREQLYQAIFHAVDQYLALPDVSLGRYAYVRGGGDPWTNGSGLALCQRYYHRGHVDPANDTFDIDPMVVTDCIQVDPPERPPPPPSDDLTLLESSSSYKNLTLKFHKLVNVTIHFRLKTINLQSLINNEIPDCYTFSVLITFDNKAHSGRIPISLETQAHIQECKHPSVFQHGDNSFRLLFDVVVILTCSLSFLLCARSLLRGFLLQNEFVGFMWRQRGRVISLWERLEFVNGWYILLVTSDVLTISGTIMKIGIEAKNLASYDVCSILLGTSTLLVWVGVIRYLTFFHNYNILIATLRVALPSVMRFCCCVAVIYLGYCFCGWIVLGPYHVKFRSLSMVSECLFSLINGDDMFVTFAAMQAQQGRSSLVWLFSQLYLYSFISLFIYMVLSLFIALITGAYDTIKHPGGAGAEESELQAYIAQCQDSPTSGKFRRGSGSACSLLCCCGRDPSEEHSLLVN
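Calcium fluorescence in TRPML1-DL cells induced overnight with Tet: a 110 s read after compound pin addition, then a 110 s antagonist read after challenge with 54-4 at 4 uM final (EC80).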
The depositor's hits bear a star; ? = inconclusive; . = not tested or not shown; & = joins results of further samples; [ ] = dose if it differs, or a comment.

SMILES	gsp ag	gsp antagonist	Sfp inh	TRPV1 PAM	ClpP mod	Menin MLL FP FL	TRPML1 blocker
O=C(NNC(=S)Nc1ccc(Br)cc1Cl)c1ccco1	-1%	-3%	12%	0	1.4%	2.3	6
CCN(CC)c1ccc(S(=O)(=O)N2CCOCC2)cc1NS(C)(=O)=O	1%	-7%	13%	-8	.	-1.2	14
COC(=O)c1sccc1-n1cccc1C(=O)NCc1ccccc1	-4%	2%	16%	-18	-3.2%	1.7	2
CCC(Oc1ccc2c(=O)c(-c3ccccc3OC)coc2c1)C(=O)OCc1ccccc1 (stereo not drawn)	-37%[inhibitor]	-29%	-12%	2	2.4%	4.6	28
CCc1ccc(Cn2nnc(C(=O)Nc3cccc(C)c3)c2N)cc1	?	9%	16%	10	-4.4%	1.3	40
CCSc1nc(C(F)(F)F)cc(=O)n1-c1ccccc1	-4%	-13%	14%	?	-2.0%	3.4	24
Cc1nc2ccccc2n1CC(=O)NCCN1CCCC1	-19%	9%	13%	1	-0.6%	-1.2	-23
CCCC1=Nc2cc(C(=O)N3CCC(C(=O)OCC)CC3)ccc2Sc2ccccc21	?	?	-2%	2	-0.2%&-0.6%	0.3	18&1
Cc1cccc(NC(=O)CSc2nnc(-c3ccco3)n2CC2CCCO2)n1 (stereo not drawn)	0%	-7%	8%	5	.	2.1	7
O=C(Nc1nc2ccccc2[nH]1)c1ccccc1F	-4%	-5%	10%	7	1.6%	-0.9	-11
Cc1ccc(-c2csc3nnc(SCC(=O)NCc4ccco4)n23)cc1	-8%	-15%	1%	1	-0.8%	0.2	7
Cc1nc2ncnn2c(C)c1CCC(=O)NCc1ccco1	-2%	3%	12%	-21	1.0%	2.3	2
O=C(Nc1ccc2c(c1)OCO2)N1CCCc2ccccc21	15%	-6%	1%	-3	-2.0%	36[activator]	30
O=C(NC1CC1)C1=C[C@H](c2ccc(Br)cc2)C[C@H](OCc2ccc(CO)cc2)O1	.	-16%	3%	4	0.9%	4.6	-14
Cc1cc(C(=O)Nn2cnc3ccccc3c2=O)ccc1[N+](=O)[O-]	6%[15.4 µM]	12%	22%	-4	.	6.3	6
CC(=O)NC1C(=O)N(CCN2CCOCC2)c2ccc(Cl)cc21 (stereo not drawn)	?	5%	?	-3	.	.	12
Brc1cnc2nc[nH]c2c1	-15%	2%	1%	6	0.2%	-0.8	-11
COc1ccc(/C=C2/C(=O)N(c3ccccc3)N=C2C)cc1	-5%	-5%	.	.	.	.	-19
CCOC(=O)NC(c1ccccc1)C1CCCCC1=O (stereo not drawn)	-18%	8%	-6%	-8	2.3%	-0.8	15
COc1ccc(CC(=O)N/N=C/C=C/c2cccc([N+](=O)[O-])c2)cc1OC	-5%	7%	-8%	.	.	3.0	-5
O=c1c2c3c(sc2nc2sc(CN4CCOCC4)cn12)CCCC3	11%	-9%	-5%	1	-1.0%	-3.4	0
CCOC(=O)C(C)n1cnc2c(nnn2-c2ccc(F)cc2)c1=O (stereo not drawn)	-40%[inhibitor]	8%	8%	22	-1.2%	1.7	-8
COc1ccc(N=Cc2ccccc2O)cc1	8%	6%	.	.	.	.	-16
COc1ccc2[nH]cc(C(O)CN3CCC(C(N)=O)CC3)c2c1 (stereo not drawn)	-10%	6%	10%	20	1.6%	1.3	-2
CCc1nnc(NC(=O)CSc2nnc(Cc3cc(=O)[nH]c(=O)[nH]3)n2-c2cccc(OC)c2)s1	5%[15.4 µM]	10%	2%	-24	.	?	16
C/C(=N\NC(=O)c1cccc(Cl)c1)c1cccc(NC(=O)c2ccco2)c1	-37%[inhibitor]	-11%	22%	11	1.0%	-0.1	5
CCOC(=O)c1oc2c(CN3CCN(C)CC3)c(O)ccc2c(=O)c1-c1ccccc1OC	27%	4%	19%	5	-2.3%	-2.6	15
CC1(C)CC(=O)C2=C(C1)OC(N)=C(C#N)C2c1cn(-c2ccccc2)nc1-c1ccccc1 (stereo not drawn)	-9%[15.4 µM]	-11%	6%	-2	1.5%	7.1	-7
CCOc1ccc(C(=O)NC(=S)NCCCN2CCOCC2)cc1	16%	13%	0%	2	-1.9%	-5.7	7
COc1ccc(C=NN=C2c3ccccc3-c3ccccc32)cc1OC	-2%	10%	.	.	1.2%	.	26
Cc1cccc(NC(=O)C2C3C=CC(O3)C2C(=O)O)c1C (stereo not drawn)	11%	2%	-8%	-7	.	2.0	-6
CCN(CC)c1nc(C)nc2c1cnn2CCc1ccccc1	-32%[inhibitor]	-7%	1%	-18	-0.2%	2.5	1
Nc1cccc(C2=Nc3cccc4cccc(c34)N2)c1	-1%	8%	16%	4	-0.5%	?	12
C/C(=N\NC(=O)CCC(=O)Nc1ccc(C)c(C)c1)c1cccs1	-10%[15.4 µM]	4%	21%	5	.	-1.7	38
CCOc1cc(N2CCOCC2)c(OCC)cc1NC(=O)c1c(-c2ccccc2)noc1C	-24%	-9%	.	11	-4.1%	.	52
NC(=O)NC(=O)COC(=O)c1ccc(OC(F)F)cc1	-53%[inhibitor]	3%	20%	2	2.3%	-1.5	12
Cc1cc(C)c(OCC(=O)OCC(=O)NCCC2=CCCCC2)c(C)c1	-16%	3%	.	-13	?	.	0
CCOc1ccccc1CN1CCN(CCCn2cccn2)CC1CCO (stereo not drawn)	12%	0%	14%	-3	-0.6%	-2.0	9
CCCn1c(C(C)Nc2nc(C)cs2)nc2cc(Cl)c(Cl)cc21 (stereo not drawn)	-30%	-14%	-24%	17	0.9%	-1.6	0
Cc1cc(NC(=O)C(C)C)ncc1NC(=O)c1cccc(F)c1	-61%[inhibitor]	6%	-11%	?	1.5%	0.7	-14

Some of the entries so far, with two lines to a compound:
Below each compound: gsp ag | gsp antagonist | Sfp inh | TRPV1 PAM | ClpP mod | Menin MLL FP FL | TRPML1 blocker
> C/C(=N\NC(=O)c1cccc(Cl)c1)c1cccc(NC(=O)c2ccco2)c1
  -37%[inhibitor] | -11% | 22% | 11 | 1.0% | -0.1 | 5
> CCOC(=O)c1oc2c(CN3CCN(C)CC3)c(O)ccc2c(=O)c1-c1ccccc1OC
  27% | 4% | 19% | 5 | -2.3% | -2.6 | 15
> CC1(C)CC(=O)C2=C(C1)OC(N)=C(C#N)C2c1cn(-c2ccccc2)nc1-c1ccccc1 (stereo not drawn)
  -9%[15.4 µM] | -11% | 6% | -2 | 1.5% | 7.1 | -7
> CCOc1ccc(C(=O)NC(=S)NCCCN2CCOCC2)cc1
  16% | 13% | 0% | 2 | -1.9% | -5.7 | 7
> COc1ccc(C=NN=C2c3ccccc3-c3ccccc32)cc1OC
  -2% | 10% | . | . | 1.2% | . | 26
> Cc1cccc(NC(=O)C2C3C=CC(O3)C2C(=O)O)c1C (stereo not drawn)
  11% | 2% | -8% | -7 | . | 2.0 | -6

Remaining list, next part:
SMILES	gsp ag	gsp antagonist	Sfp inh	TRPV1 PAM	ClpP mod	Menin MLL FP FL	TRPML1 blocker
CCOc1ccccc1N1CCN(C(=O)CNC(=O)c2ccc(OC)c(OC)c2)CC1	-35%[15.4 µM]	0%	9%	-17	.	-0.8	-2
C=CCSc1n[nH]c(-c2cccs2)n1	?	2%	-9%	-6	-27%	-0.6	3
O=C(CCCN1C(=O)/C(=C/c2ccc3c(c2)OCO3)SC1=S)Nc1ccc(C(=O)O)cc1	-29%	-6%	8%	-9	0.5%	.	-3
Cc1ccc(C)c(NC(=O)CN(C)C(=O)c2ccc(S(=O)(=O)N(C)c3ccccc3)cc2)c1	6%	-25%	.	8	-0.7%	.	7
O=C(NN1CCOCC1)c1cc(-c2ccc(Br)s2)nc2ccccc12	?	-15%	-7%	-7	?	1.9	22
N#CC1(C#N)C(C(N)=O)C1c1ccccc1 (stereo not drawn)	11%	10%	-8%	-8	-2.6%	.	-1
Fc1cccc(Cn2ccc(-c3ccc4c(c3)OCO4)n2)c1	15%	?	?	-17	-9.8%	1.9	-1
COc1ccc(C(=O)Oc2ccc(/C=N/O)cc2)cc1	-1%	-4%	-6%	-1	-1.6%	3.4	-4
CC1CCN(c2ccccc2NC(=O)c2ccc([N+](=O)[O-])o2)CC1	-4%[15.4 µM]	7%	17%	1	.	.	7
Cc1ccnc(NC(=O)c2cc3c(=O)oc4ccc(C)cc4c3s2)c1	1%[15.4 µM]	0%	8%	-4	.	-1.5	-11
COCCCNC(=O)c1cc2c(-c3cccc(OC)c3)nn(C)c2s1	19%[15.4 µM]	-10%	1%	-9	4.2%	-0.4	4&-26
COc1ccccc1-c1nn2c(C3COc4ccccc4O3)nnc2s1 (stereo not drawn)	?	-13%	20µM*	-2	?	-0.7	-3
Cc1[nH]c2ccccc2c1C(=O)COC(=O)c1ccc[n+]([O-])c1	13%	-1%	-1%	0	-1.3%	-0.8	18
O=C(OCc1nnc(-c2ccccc2)o1)C1CCN(C(=O)c2ccc(Cl)cc2)CC1	24%	-4%	.	-10	0.9%	.	-3
Cc1ccc(C)c2[nH]c(=O)c(CCNC(=O)c3ccc(Br)o3)cc12	6%	?	.	.	-29%	.	-6
CCCn1nnnc1NCc1cccc(Cl)c1	-10%	7%	13%	2	.	0.6	11
Cc1ccc(-n2ncc3c(=O)n(CC(=O)N4CCN(c5ccccc5)CC4)cnc32)cc1	10%[15.4 µM]	1%	5%	2	-1.6%	3.6	-1
COc1cccc(NC(=O)/C=C/c2ccc([N+](=O)[O-])cc2)c1	-9%[15.4 µM]	-6%	50µM*	-18	.	3.4	1
COc1cc(/C=N/NC(=O)c2ccc(=O)[nH]n2)ccc1O	28%	-5%	-5%	-2	-1.0%	0.9	-5
COC(=O)N/N=C\C=C\c1ccc2c(c1)OCO2	-30%	?	10%	13	-4.1%	-0.3	-6
Cc1ccc(C)c(NC(=O)c2ccc3ccccc3n2)c1	15%	-22%	-13%	4	35µM*	3.0	12
COc1ccc(OC)c(C2N(c3cc(C)on3)C(=O)C3CCCN32)c1 (stereo not drawn)	-27%	-1%	20%	-5	-7.3%	0.3	-11

Outcome played no part in choosing rows. Share with any hit: about 4.9%.
